Screens (PubChem)
CBX7 AlphaScr: blocks human CBX7 binding to H3K27me3 peptide; O95931; AlphaScreen His6-CBX7 / biotin-H3K27me3 peptide binding; hits give low values; normalised signal (fraction of DMSO) (no concentration beside the values); 1.1% of 66,000 active; AID 1224903; in the data active means normalised signal below about 0.5;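 further: 100 nL library stock added to about 20 µL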
Target sequence (O95931 whole entry, looked up): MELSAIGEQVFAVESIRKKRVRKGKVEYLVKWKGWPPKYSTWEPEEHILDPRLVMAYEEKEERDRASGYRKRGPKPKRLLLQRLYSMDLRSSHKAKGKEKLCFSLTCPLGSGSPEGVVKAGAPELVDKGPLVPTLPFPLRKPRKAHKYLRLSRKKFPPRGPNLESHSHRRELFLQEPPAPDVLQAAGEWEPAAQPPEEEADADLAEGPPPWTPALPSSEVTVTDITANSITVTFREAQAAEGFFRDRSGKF
CBX7 AlphaScr z-score: further read-out of CBX7 AlphaScr, marked with its call; z-score; measured here: z-score of CBX7 signal; some inactives read as strong as hits; reference of the scale not given here;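 same signal on another scale; lower means less binding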
Active calls of the source: *. These rows are one share of the data; the hit share may differ from the screen's.

The line under a structure holds: CBX7 AlphaScr | CBX7 AlphaScr z-score
> COc1ccc(CCC(=O)Nc2ccc(-c3noc(COc4cccc(C)c4)n3)cc2)cc1
  1 | -0.034
> O=C(COc1ccc(Br)cc1)Nc1ccc(Cl)c(-c2nc3ncccc3o2)c1
  0.94 | -0.072
> COc1ccc(C(=O)Nc2c3c(nn2-c2cccc(C)c2C)CSC3)cc1
  1 | 0.67
> COc1ccccc1N1CCN(c2ncc(C(=O)N3CCN(C)CC3)c3ccccc23)CC1
  1.1 | 1.3
> O=C(NC1CCCC1)c1cc(-c2ccc(Cl)cc2)nc2ccccc12
  1.2 | 1.8
> CC(C)CN(CCNC(=O)Cn1nc(-c2ccccc2)ccc1=O)CC(C)C
  1 | 0.74
> O=C(c1cc2c(s1)-c1ccccc1OC2)N1CCN(Cc2ccc3c(c2)OCO3)CC1
  1.1 | 3
> Cn1nc(CC(=O)NC2CCCCC2)c2ccccc2c1=O
  0.79 | -3.1
> O=C1CC(N2CCN(c3cccc(C(F)(F)F)c3)CC2)C(=O)N1c1ccccc1 (stereo not drawn)
  1 | 0.54
> O=C(C1CC1)N1CCc2cc(S(=O)(=O)NCC3COc4ccccc4O3)ccc21 (stereo not drawn)
  0.97 | -0.35
> Cc1cc(N2CCN(c3ncccn3)CC2)nc2ccc(NC(=O)c3ccccc3F)cc12
  1.1 | 0.58
> COc1ccc(-n2ccnc2SCC(=O)Nc2cc(OC)ccc2OC)cc1
  0.96 | -0.67
> C=CCc1c(C)c2ccc(OC(C)=O)cc2oc1=O
  0.97 | -0.34
> COc1ccc(-c2nn(C)c(=O)c3ccccc23)cc1CNC(=O)c1ccccc1OC
  1 | 0.39
> O=C1C(c2ccc(F)cc2)N(CCc2ccccc2)C(=O)CN1C1CCCCCC1 (stereo not drawn)
  0.95 | -0.92
> COc1ccc(NC(=O)c2cc(-c3ccco3)on2)cc1
  1 | 0.47
> O=C(Nc1nc2c(s1)CCc1ccccc1-2)c1ccccc1Oc1ccccc1
  1.3 | 12
> Cc1noc(/C=C/c2cccs2)c1S(=O)(=O)N1CCC(C(=O)N2CCc3ccccc32)CC1
  1 | 0.044
> COc1ccccc1CNC(=O)c1cccc2c1C(=O)N(Cc1cccnc1)C2
  1 | 0.027
> COc1ccc(-c2noc(COc3cc(C)cc(C)c3)n2)cc1
  0.73 | -3.9
> Cc1cc(C)cc(NS(=O)(=O)c2ccc3[nH]cc(C(=O)N4CCCCC4)c(=O)c3c2)c1
  0.92 | -1.5
> COC(=O)c1c[nH]n2c(NC3CCCCC3)c(-c3cccc(Br)c3)nc12
  0.52 | -9.5
> CCN(CC)CCCNC(=O)c1cc(Nc2cc(C)ccc2C)nc2ccccc12
  1.1 | 3.1
> COc1ccc(-c2nc3cc(C)ccn3c2NC(=O)c2ccccc2C)cc1
  0.77 | -6.7
> COc1cccc(-n2ccnc2SCC(=O)Nc2nc3ccc(C)cc3s2)c1
  0.96 | -0.64
> COc1ccc2c(c1)CCc1c(C(=O)Nc3c(C)nn(Cc4ccccc4C)c3C)noc1-2
  0.89 | -2.7
> CCCCNC(=O)Cn1nc(-c2ccc(C)cc2)ccc1=O
  1 | -0.053
> O=C(Nc1ccccc1-c1nc2ccccc2o1)c1ccc(S(=O)(=O)N2CCc3ccccc3C2)cc1
  1 | 0.0014
> COc1ccccc1Cc1nc2ccccc2nc1SCC(=O)NCc1ccccc1
  1.1 | 0.32
> O=C(Cc1ccccc1)Nc1ccc2oc(-c3ccccc3Br)nc2c1
  0.95 | -0.61

Rewritten as tab-separated lines: entries from further up.
SMILES	CBX7 AlphaScr	CBX7 AlphaScr z-score
COc1ccc(-c2nc3cc(C)ccn3c2NC(=O)c2ccccc2C)cc1	0.77	-6.7
COc1cccc(-n2ccnc2SCC(=O)Nc2nc3ccc(C)cc3s2)c1	0.96	-0.64
O=C(Cc1ccccc1)Nc1ccc2oc(-c3ccccc3Br)nc2c1	0.95	-0.61
CCN(CC)CCCNC(=O)c1cc(Nc2cc(C)ccc2C)nc2ccccc12	1.1	3.1

Remaining list, next part
The line under a structure holds: CBX7 AlphaScr | CBX7 AlphaScr z-score
> O=C(NCc1ccc(F)cc1)C1CCC(CNS(=O)(=O)c2cccc3cccnc23)CC1 (stereo not drawn)
  1 | 0.33
> COCCNC(=O)c1cc(=O)[nH]c2ccc(S(=O)(=O)N3CCCCCC3)cc12
  1.1 | 0.75
> Cc1cc(C)cc(CC(CC(=O)Nc2ccc(F)cc2)C(=O)O)c1 (stereo not drawn)
  1 | 0.032
> COc1ccc(CNC(=O)c2cnn3c(C)c(Cc4c(F)cccc4Cl)c(C)nc23)cc1
  0.82 | -4.4
> COc1ccc(CNC(=O)c2cc(=O)c3c(C)nn(-c4ccccc4)c3[nH]2)cc1
  0.88 | -1.3
> COc1ccc(-c2noc(-c3ccc(Cl)cc3)n2)cc1OC
  1.1 | 1.1
> Cc1cc2ccccc2c(=O)n1CC(=O)NCc1ccc(F)cc1
  0.95 | -1.4
> CCOC(=O)c1ccc(NC(=O)CC2Sc3ccc(C(F)(F)F)cc3NC2=O)cc1 (stereo not drawn)
  1 | 0.22
> CCCCN(CCCC)S(=O)(=O)c1ccc2oc(C(=O)NCCC(C)C)c(C)c2c1
  1 | 0.42
> CC(=O)Nc1nonc1-c1nc2ccccc2n1Cc1ccc(Br)cc1
  1 | 0.29
> Cc1nc2c(C(=O)N3CCCC3)c[nH]n2c(=O)c1Cc1ccccc1Cl
  0.9 | -1.1
> O=C(NCc1ccc2c(c1)OCO2)c1nnc(Cc2ccc(F)cc2)o1
  0.92 | -0.96
> Cc1oc(-c2cccc(Cl)c2)nc1CN1CCC(C(=O)NCCCN2CCOCC2)CC1
  1.7 | 6
> O=C(Nc1ccc2c(c1)OCO2)c1cc(-c2ccc(Br)cc2)on1
  0.94 | -1.4
> COC(=O)c1cccc(NC(=O)COc2cc(C)ccc2C(C)(C)C)c1
  1.3 | 0.66
> Cc1cccnc1NC(=O)c1cc2ccccc2oc1=O
  0.99 | -0.15
> COc1cc(NC(=O)CSc2nc3ccc(OC)cc3[nH]2)cc(OC)c1
  1.1 | 1.1
> CCOc1ccc(NC(=O)Cn2cnc3scc(-c4ccccc4)c3c2=O)cc1
  0.97 | -0.64
> COc1ccc(-c2noc(COc3cc(C)c(Br)c(C)c3)n2)cc1OC
  1.1 | 2.5
> CCOC(=O)c1cnc2cc(C(F)(F)F)ccc2c1NCCCN1CCN(C)CC1
  1.1 | 2.3
> O=C(NC1CCCCCCC1)C1c2cccn2CC(=O)N1Cc1ccc(Cl)cc1 (stereo not drawn)
  1 | 0.23
> COc1ccc(-c2nc3ccccc3n2C(=O)c2ccccc2C(=O)O)cc1OC
  0.9 | -1.1
> CCc1cccc(NC(=O)C2CCCN2S(=O)(=O)c2ccc3c(c2)n(C)c(=O)c(=O)n3C)c1 (stereo not drawn)
  1.2 | 1.6
> COc1ccc2c(c1)CCc1c(C(=O)Nc3cnn(Cc4ccccc4C)c3)noc1-2
  1 | 0.67
> Cc1nn(Cc2c(Cl)cccc2Cl)c(C)c1NC(=O)c1cc(-c2ccccc2O)on1
  1.1 | 0.17
> O=S1(=O)N=C(Nc2nc(-c3ccccc3)cs2)c2ccccc21
  0.95 | -1.3
> COc1cc(NC(=O)c2ccc(F)cc2)cc(-n2cnnn2)c1
  1 | 0.14
> COc1ccc(OCC(=O)Nc2cc(-c3nc4cc(Cl)ccc4o3)ccc2C)cc1
  1 | 0.089
> CCN(CCCNC(=O)C1(S(=O)(=O)c2ccc(Cl)cc2)CC1)c1cccc(C)c1
  0.79 | -9.9
> O=C(c1ccc(F)cc1)N1CCNc2ccccc2C1
  0.92 | -0.99
> Cc1ccc(OCC(O)CN2C(=O)c3ccccc3C2=O)cc1 (stereo not drawn)
  1.1 | 0.33
> CCCCCc1nnc(NC(=O)c2ccccc2Cl)s1
  1.5 | 1.1
> COc1cc2c(C(=O)Nc3ccc(F)cc3Cl)cn(CC(C)C)c(=O)c2cc1OC
  1.2 | 2
> COc1ccc(-n2c3c(cc(C(=O)N4CCN(CCO)CC4)c2=O)C(=O)CC(C)(C)C3)cc1
  1 | -0.078
> CCOC(=O)N1CCN(c2c(N3CCN(c4ncccn4)CC3)c(=O)c2=O)CC1
  1 | 0.57
> Cc1ccc2cc(CCN3C(=O)c4ccccc4C3=O)c(=O)[nH]c2c1C
  1 | 0.53
> COc1ccc2c(c1)c(SC)c(CC(=O)O)n2C
  0.85 | -1.8
> CCOC(=O)c1ccc(N2C(=O)C3C4C=CC(C4)C3(C)C2=O)cc1 (stereo not drawn)
  1.1 | 0.83
> COc1cc(Nc2c3c(nc4cc(Cl)ccc24)CCCC3)cc(OC)c1OC
  0.69 | -4.7
> Cc1ccc2c(c1)c(=O)c(S(=O)(=O)c1ccc(Cl)cc1)cn2CC(=O)Nc1ccccc1
  0.98 | -0.88

One compound at a time (already shown). Screens in order: CBX7 AlphaScr | CBX7 AlphaScr z-score
Listed for COc1ccc(CCC(=O)Nc2ccc(-c3noc(COc4cccc(C)c4)n3)cc2)cc1 → 1 | -0.034
Listed for O=C(c1cc2c(s1)-c1ccccc1OC2)N1CCN(Cc2ccc3c(c2)OCO3)CC1 → 1.1 | 3
Listed for Cc1ccc2cc(CCN3C(=O)c4ccccc4C3=O)c(=O)[nH]c2c1C → 1 | 0.53
Listed for COc1ccccc1Cc1nc2ccccc2nc1SCC(=O)NCc1ccccc1 → 1.1 | 0.32

(more compounds)
The line under a structure holds: CBX7 AlphaScr | CBX7 AlphaScr z-score
> Cn1c(=O)[nH]c(=O)c2c1nc(CN1CCOCC1)n2CCCc1ccccc1
  1 | 1.7
> Cc1ccc(C)c(N2CCN(CCCNC(=O)Nc3ccc(Cl)cc3)CC2)c1
  0.97 | -0.036
> O=C(Nc1ccc2oc(-c3ccncc3)nc2c1)c1ccc(Cl)cc1
  1.1 | 1.7
> c1cncc(CNc2nnc(Cc3cccnc3)c3ccccc23)c1
  1.1 | 2.6
> O=C(c1ccc2c(c1)N(Cc1ccc(Cl)cc1)C(=O)c1ccccc1S2=O)N1CCOCC1 (stereo not drawn)
  1 | 0.3
> COc1ccccc1C(=O)Nc1ccc2nc(N3CCN(C)CC3)cc(C)c2c1
  1 | 0.28
> CC(C)C(=O)Nc1ccccc1-c1nc2ccccc2[nH]1
  0.98 | -0.35
> COc1ccc2c(c1)CCc1c(C(=O)Nc3c(C)nn(Cc4ccccc4Cl)c3C)noc1-2
  0.82 | -3.9
> COc1cc(-c2nnc(SCC(=O)c3ccc4ccccc4c3)o2)cc(OC)c1OC
  1.2 | 1.9
> Cc1ccc(OCC(=O)Nc2cc(-c3nc4ccccc4o3)ccc2C)c(C)c1
  0.93 | -1.1
> COC(=O)c1ccc2nc(C)cc(Nc3cccc(Cl)c3)c2c1
  0.98 | -0.18
> O=C(NC1CCCCCC1)C1c2ccccc2C(=O)N1CCc1ccc(Cl)cc1 (stereo not drawn)
  0.89 | -0.39
> C=CC1CCC(N(Cc2ccccc2)S(=O)(=O)c2ccc(C)cc2)C(O)C1 (stereo not drawn)
  0.75 | -1.6
> CC(C)Cc1cc(C(=O)NC(C)C)no1
  1 | 0.84
> O=C(Nc1cccc(-c2cn3ccccc3n2)c1)c1ccc(Cl)cc1
  1 | 0.44
> CCOC(=O)c1c(NC(=O)c2cccc(Br)c2)sc2c1CCC(C)C2 (stereo not drawn)
  1.7 | 10
> Cc1ccc(-c2n[nH]c3c2C(c2cccc([N+](=O)[O-])c2)N(c2ccc(F)cc2)C3=O)cc1 (stereo not drawn)
  0.54 | -0.93
> Cc1ccccc1Nc1nnc(-c2ccc(C)c(S(=O)(=O)NCC3CCCO3)c2)c2ccccc12 (stereo not drawn)
  0.72 | -3.2
> CC1(C)NC(=O)N(CC(O)COc2ccc(C(C)(C)C)cc2)C1=O (stereo not drawn)
  1 | 0.98
> COc1ccc(NC(=O)C2(S(=O)(=O)c3ccc(Cl)cc3)CC2)cc1Cl
  1 | 0.15
> COc1cc2c(cc1OC)C1C(C(=O)N3CCOCC3)c3ccccc3C(=O)N1CC2 (stereo not drawn)
  1 | 0.28
> Cc1cc(OCC(O)CN2C(=O)NC(C)(C)C2=O)ccc1C(C)C (stereo not drawn)
  1.4 | 0.99
> CCc1ccccc1NC(=O)C(CC(C)C)N1C(=O)c2ccccc2C1=O (stereo not drawn)
  1.3 | 1.2
> Cc1ccc(NC(=O)c2cnc(N3CCN(c4ncccn4)CC3)c3ccccc23)cc1F
  1.1 | 0.82
> COc1ccc(NC(=O)CCc2c(C)nc3nc(C)nn3c2C)cc1
  1.6 | 2.5
> COCCCNC(=O)c1sc2ncn(CC(=O)N3CCCCC3)c(=O)c2c1C
  1.1 | 0.41
> CCOC(=O)N1CCN(c2c(NCCCN3CCCC(C)C3)c(=O)c2=O)CC1 (stereo not drawn)
  1 | 0.28
> O=C1CCc2cc(S(=O)(=O)NC(C(=O)NCc3cccnc3)c3ccccc3)ccc2N1 (stereo not drawn)
  1.1 | 1.3
> CCOc1ccc(CCNC(=O)c2cc(Nc3ccccc3OC)nc3ccccc23)cc1OCC
  1 | 0.69
> O=C(Nc1cccc(F)c1)C1CCC(CNS(=O)(=O)c2cccc3cccnc23)CC1 (stereo not drawn)
  1 | 0.16
> O=C(C1CC1)N1CCc2cc(S(=O)(=O)N3CCN(c4ccccc4)CC3)ccc21
  1 | 0.87
> CCOC(=O)N1CCC(N2Cc3cccc(C(=O)Nc4ccc(CC)cc4)c3C2=O)CC1
  0.92 | -3.1
> COc1ccc(-c2[nH]c(-c3ccc(OC)c(OC)c3)nc2SCC(=O)Nc2ccccc2)cc1
  0.87 | -6
